CtBP-E1A blk: inhibitors of CtBP/E1A interaction | AlphaScreen GST-E1A/His-CtBP binding, 1536-well; hits give low values; control for the full effect not named in the record | activity change, % (no concentration beside the values) | hit rate 0.49% among 340,000; in the data active means activity change below about -65%; inconclusive means about -30% to -65%; inactive means above about -30%; further: on the % scale 0 is the no-effect control and ±100 the full control effect; compound concentration not given in the record
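Steps: dispense buffer (Tris pH 8.0, NaCl 300 mM, TCEP 1 mM, BSA, Tween 20); add 5X protein mix (GST-E1A, His-CtBP, 125 nM each); pin 23 nL compound; 2 h at 37 °C, dark; add 5X beads (50 ug/mL); 1 h; read.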
D2 ag: human D2 receptor agonism in beta-arrestin assay; DiscoveRx PathHunter D2 beta-arrestin, luminescence, 90 min; 100% = 57 uM dopamine signal; hit rate 0.084% among 360,000; P14416; activation, % (concentration not given with the values); in the data active = activation above about 40%; inconclusive = about 15% to 40%; inactive = below about 15%; further: compound concentration not given in the record; the text of the record calls up to 30% inactive
Target sequence (P14416 whole entry, looked up): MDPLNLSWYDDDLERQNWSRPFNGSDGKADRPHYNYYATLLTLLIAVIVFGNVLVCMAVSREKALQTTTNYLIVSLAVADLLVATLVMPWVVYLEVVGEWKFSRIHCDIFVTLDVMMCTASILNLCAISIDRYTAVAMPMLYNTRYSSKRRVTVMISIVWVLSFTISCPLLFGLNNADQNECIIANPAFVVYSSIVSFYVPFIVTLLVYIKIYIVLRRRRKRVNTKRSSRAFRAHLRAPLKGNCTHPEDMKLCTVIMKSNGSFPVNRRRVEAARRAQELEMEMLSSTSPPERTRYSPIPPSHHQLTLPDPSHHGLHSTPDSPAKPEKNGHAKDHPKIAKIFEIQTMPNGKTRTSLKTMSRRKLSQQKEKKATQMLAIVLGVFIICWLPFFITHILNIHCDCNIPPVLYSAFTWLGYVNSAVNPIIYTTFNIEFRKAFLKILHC
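DiscoveRx PathHunter D2 beta-arrestin cells (2,100/well) attached overnight, then compound-stimulated 90 min at 37 C in HBSS/10 mM HEPES/0.1% Tween-20 buffer; beta-galactosidase complementation read by luminescence after 1 h at ambient temperature. Dopamine 57 uM final (EC100) as control.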
Six1-Eya2 inh: inhibitors of human Six1/Eya2 interaction; activity change, % (test concentration not listed); AlphaScreen GST-Six1/His-Eya2 binding, biochemical; hits give low values; control for the full effect not named in the record; hit rate 0.56% among 360,000; in the data active = activity change below about -65%; inconclusive = about -30% to -65%; inactive = above about -30%; further: on the % scale 0 is the no-effect control and ±100 the full control effect; compound concentration not given in the record
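AlphaScreen luminescence read after one hour at 37 °C in darkness. Pin-transferred compounds met GST-Six1 and His-Eya2 protein (5X stock 250 nM/500 nM) plus glutathione donor and Ni-chelate acceptor beads (5X, 50 ug/mL).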
TRPML1 agonist: human mucolipin-1 channel agonism | Q9GZU1 | TRPML1-expressing cells, Ca2+ dye fluorescence, FDSS; host cell line not named in the record; reference of the full effect not given here | activation, % (concentration not given with the values) | hit rate 0.12% among 410,000 | AID 624414; in the data active = activation above about 50%; inconclusive = about 30% to 50%; inactive = below about 30%; further: 0% is about no effect; the text of the record puts the active cut at 80%
Target sequence (Q9GZU1 whole entry, looked up): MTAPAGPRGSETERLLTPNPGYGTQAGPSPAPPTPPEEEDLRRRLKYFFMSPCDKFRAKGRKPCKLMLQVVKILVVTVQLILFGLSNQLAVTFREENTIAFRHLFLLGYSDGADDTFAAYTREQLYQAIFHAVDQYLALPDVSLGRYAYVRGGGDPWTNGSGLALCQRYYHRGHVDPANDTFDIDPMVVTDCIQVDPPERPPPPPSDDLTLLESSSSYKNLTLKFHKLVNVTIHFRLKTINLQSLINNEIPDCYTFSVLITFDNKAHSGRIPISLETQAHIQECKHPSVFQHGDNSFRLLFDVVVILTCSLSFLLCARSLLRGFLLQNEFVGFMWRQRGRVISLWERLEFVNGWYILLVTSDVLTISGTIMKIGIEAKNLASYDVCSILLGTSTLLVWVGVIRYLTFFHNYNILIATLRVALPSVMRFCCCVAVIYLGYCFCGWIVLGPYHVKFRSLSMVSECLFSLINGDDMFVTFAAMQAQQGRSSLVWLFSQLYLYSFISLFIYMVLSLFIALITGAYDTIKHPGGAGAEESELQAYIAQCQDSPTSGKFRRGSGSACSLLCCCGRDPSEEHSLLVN
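Cells: TRPML1-DL, 1X Tet inducer, ~16 h at 37 degrees C/5% CO2. Dye: ABD Ca8 no-wash + quencher, 45-90 min RT. Read: 10 s baseline, compound add, 110 s agonist phase; 54-4 EC80 (4uM final), 110 s antagonist phase.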
PINK1 expr mod: PINK1 expression modulation | PINK1 immunofluorescence, high-content cytometry, 24 h | Potency, µM (doses to about 76.6 µM), without a hit: at the highest dose activation (PINK1 increase), most hits filed as activators | hit rate 0.2% among 410,000 | AID 624263; active = well fitted activation curve with a large enough effect; inconclusive = small, poorly fitted or top-dose-only effect; inactive = flat fitted curve, though single readings scatter; cell line not stated here;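 further: potency means the concentration at half of the fitted maximal effect; % of control where 0% means no effect; nearly all actives have a fitted effect of over 65% in size; a mitochondrial uncoupler was the plate control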
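Decision-based qHTS: stable cells, 24 h exposure to five compound concentrations, CCCP as control. Fixed cells stained for PINK1 plus nuclear, mitochondrial and cell markers, cytometer read.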
TRPML1 blocker: inhibitors of human TRPML1 channel; AID 624415; hit rate 0.02% among 390,000; TRPML1-inducible cells, Ca2+ dye fluorescence, FDSS; hits give low values; inhibition of EC80 agonist-evoked calcium signal; activity change, negative = inhibition, % (no concentration beside the values); in the data active means activity change below about -50%; inconclusive means about -30% to -50%; inactive means above about -30%;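 further: stimulus is agonist 54-4 at its EC80 concentration; on the % scale 0 is the no-effect control and ±100 the full control effect; compound concentration not given in the record; the text of the record puts the active cut at -80%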
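Tet-induced TRPML1-DL cells loaded with Ca8 no-wash calcium dye were read kinetically on FDSS. Compound addition was followed by EC80 agonist 54-4 (4 uM final); inhibition was read over 110 s.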
* marks the source's active call; other numbers are inactive results; u = inconclusive; x = no result given; [ ] = remark or other dose. Rows are unselected. Share with any hit: about 1%.

SMILES	CtBP-E1A blk	D2 ag	Six1-Eya2 inh	TRPML1 agonist	PINK1 expr mod	TRPML1 blocker
Cc1ccc(-c2ccc(CCC(=O)O)n2Cc2ccco2)cc1	-4.4	-2.4	-10.3	1.4	-2.3%	-14.5
COc1cc(CN(C(=O)c2cccc(C)c2)c2ccccn2)cc(OC)c1OC	x	x	x	-1.1	-0.4%	19.5
O=C(CCN1CCOCC1)Nc1cccc(Br)c1	4.8	-4.2	6.0	-0.4	0.1%	2.1
CN1CCN(C(=O)C2(NC(=O)NCc3ccccc3)CCCCC2)CC1	1.0	-0.6	8.3	-0.2	1.2%	18.4
CC1CC(=O)Nc2ccccc2N1C(=O)CN1CCN(C=O)CC1 (stereo unspecified)	-6.6	-1.9	-3.5	1.4	0.1%	21.7
COCCCNC(=O)N1c2ccccc2Sc2ccccc21	-1.8	2.7	0.3	0.1	1.3%	20.3
COCCn1nnnc1CN(CCc1ccccc1)Cc1cc2cc(OC)ccc2[nH]c1=O	-10.5	-2.3	-3.2	0.7	-3.8%[38.3 µM]	-6.1
CN(C)c1ccc(CNC(=O)CCn2cccn2)cc1	x	x	x	1.9	2.3%	-16.6
CNc1nc(C)c([N+](=O)[O-])c(Nc2ccc(OC)cc2)n1	-6.5	-3.0	-10.6	1.5	0.6%	49.0
CCOc1ccc(N/C(N)=N/c2nc(C)c(C)c(=O)[nH]2)cc1	4.4	2.8	1.1	1.4	-0.4%	37.7
Cc1cccc(-n2c(C)nc3cc(C(=O)N4CCOCC4)ccc32)c1	1.9	u	-1.0	0.3	-0.6%	52.1
CCn1nnnc1SCC(=O)N1N=C(c2cccs2)CC1c1cccs1 (stereo unspecified)	5.4	2.7	2.4	0.7	-1.4%	-1.8
O=C(CC1C(=O)NCCN1CC1CCCCC1)NCc1cc(F)ccc1F (stereo unspecified)	7.8	-1.1	1.1	-0.4	-0.2%	-4.2
COc1cc(CNc2ccc3[nH]c(=O)[nH]c3c2)ccc1OCc1c(F)cccc1Cl	-4.6	-2.0	2.2	0.2	7.2%	-26.0
CCOC(=O)c1ccccc1NC(=O)CSc1ccc(-c2cccs2)nn1	x	x	x	3.0	1.6%	15.2
Oc1ccc2ccccc2c1CN1CCN(c2ccccc2)CC1	6.0	-2.9	-2.3	0.7	-2.1%	-6.9
COCCNC(=O)C(C)OC(=O)C1=Cc2ccccc2OC1 (stereo unspecified)	x	-2.9	3.9	2.8	-1.3%	23.5
O=C(Nc1ccc(OCc2ccccc2)cc1)c1cccnc1	10.8	-3.2	-0.4	-0.7	-2.8%[38.3 µM]	-6.3
CCC(CO)Oc1cc(NCc2cccc(OC)c2)c2ncn(C(C)C)c2c1 (stereo unspecified)	-11.9	5.1	-11.1	0.0	3.2%	-17.8
Cc1cccc(C(=O)OCC(=O)N(CC(C)C)c2c(N)n(Cc3ccccc3)c(=O)[nH]c2=O)c1C	-20.0	-0.8	6.6	0.9	u	-8.2
CCOc1ccc2nc(N3CCN(C(=O)c4ccco4)CC3)sc2c1	x	x	x	2.1	-1.5%	3.6
Cn1c(=O)c2c(-c3ccccc3)n(-c3cccc(Br)c3)cc2n(C)c1=O	4.1	-2.1	-0.1	0.9	2.5%	3.5
O=C(CCNC(=O)N1CCn2c1nc1ccccc12)NCc1ccc(F)cc1	0.1	-1.3	8.4	-0.8	-1.7%	25.6
CC(C)C[C@@H](CNCC(=O)[C@H](C)NC(=O)c1[nH]cnc1C(=O)N[C@@H](C)CN)NC(=O)c1nc[nH]c1C(=O)N[C@@H](C)C(=O)O	u	-4.7	-28.5	-0.7	1.0%	-2.4
O=C(c1cccnc1)C1Cc2ccccc2C1=O (stereo unspecified)	x	-3.3	0.2	3.6	-0.8%	27.8
O=C(c1ccccc1)c1c(O)nc(-c2ccccc2)n(-c2ccccc2)c1=O	8.7	1.0	21.6	0.2	2.6%	3.1
O=C(OCC(=O)N1CCC(Cc2ccccc2)CC1)c1ccc[nH]c1=O	5.8	2.3	0.7	-0.8	-0.5%	-0.3
Cc1oc(-c2cccc(Cl)c2)nc1CN1CCC(C(=O)NCCCN2CCN(c3cccc(Cl)c3)CC2)CC1	x	x	x	-0.5	-0.2%	17.2
O=[N+]([O-])c1c(NCCCO)cc(SCc2ccco2)c2nonc12	15.4	-6.7	-3.3	0.9	-1.0%	25.9
Nc1c(C(=O)NCc2ccc(Cl)cc2Cl)nnn1Cc1ccc(Br)cc1	x	x	x	2.6	4.6%	-6.5
CCn1cc(C(=O)NCCc2ccc(Cl)cc2)c(=O)c2cc(S(=O)(=O)N3CCCCCC3)ccc21	x	x	x	-0.2	0.6%	6.3
Cc1c(NC(=S)NC(=O)c2ccccc2)c(=O)n(-c2ccccc2)n1C	-1.0	-3.6	-7.9	-0.4	0.8%	3.7
CCOc1cc(CNC(=O)c2ccc(C)c(NC(=O)c3nsc4ccccc34)c2)ccc1OC	x	x	x	1.5	-0.2%	-10.6
COc1ccc(C2c3ccc4ccccc4c3Oc3ncn(CCO)c(=N)c32)cc1OC (stereo unspecified)	x	-1.1	-4.8	2.4	0.5%	-15.4
C#CC1(NC(=O)NS(=O)(=O)c2ccc(C)cc2)CCCCC1	-8.7	-3.1	6.7	-0.2	0.7%	-17.8
Cc1cccc(C)c1NC(=O)CN(c1ccccn1)S(=O)(=O)c1ccccc1	3.6	-4.1	3.0	0.4	-1.6%	-9.9
Cc1nn2c(-c3ccccn3)ccnc2c1Cl	12.9	0.8	5.0	-0.8	3.3%	-7.2
Cc1cc(C(=O)COC(=O)CCCN2C(=O)c3ccccc3C2=O)c(C)n1C	-16.8	-0.7	-26.2	-0.9	0.3%	-1.7
CCN(CC)c1ccc(S(=O)(=O)N2CCOCC2)cc1NC(=O)CN1C(=O)NC2(CCCC2)C1=O	2.8	-3.7	1.5	-0.1	4.8%	14.3
COc1ccc(NC(=O)CCc2c(C)nc3c(c2C)c(=O)n(C)c(=O)n3C)c(OC)c1	x	x	x	-0.7	1.4%	-8.4
COc1cc(NC(=O)c2nnn(Cc3ccc(SC)cc3)c2N)cc(OC)c1	-9.7	8.3	-11.4	1.4	5.9%	46.0
c1coc(CNc2c3c(nc4ncnn24)CCCC3)c1	0.5	0.8	0.2	0.3	-0.4%	-8.7
COc1ccccc1C(=O)Nc1ccc(NC(=O)c2ccco2)c(C)c1	-4.1	-1.4	-4.1	-0.9	-0.7%	-1.8
Cc1cccc(NC(=S)/N=C(\N)Nc2nc(C)c3ccc(C)cc3n2)c1	-24.6	-4.0	-26.7	1.5	6.5%	-6.5
O=C(Nc1cc(-c2ccccc2)[nH]n1)c1ccccc1	-11.3	-1.5	-6.1	-0.3	-0.4%	9.7
O=C1CCCCC1Sc1nnc(Nc2ccccc2)s1 (stereo unspecified)	-12.9	1.2	-0.1	-0.6	-0.5%	-7.1
CCOc1cccc(CNCc2ccncc2)c1	-2.8	1.2	4.4	0.5	2.1%	6.3
CN1CCNC(=O)C1CC(=O)NCCC1=CCCCC1 (stereo unspecified)	6.5	0.2	-0.3	0.8	-1.1%	-1.8
Nc1ncnc2c1ncn2[C@@H]1O[C@H](CNC(=O)[C@@H]2CCC(=O)N2)[C@@H](O)[C@H]1O	4.2	-0.9	1.1	-0.3	1.1%	27.3
CC1CC(OCC(O)CN2CCN(Cc3ccccc3)CC2)CC(C)(C)C1 (stereo unspecified)	-2.5	1.2	5.1	-0.2	0.8%	4.6
CCN(CC)CCNC(=O)C(=O)Nc1c2c(nn1-c1ccc(F)cc1)CSC2	x	x	x	0.1	1.7%	6.6
COc1cc(CC(=O)N(c2ccccc2)c2nc(C)cs2)cc(OC)c1OC	2.0	-1.2	-2.2	-0.1	1.9%	10.0
C=C(C)C1CC=C(C)/C(=N/NC(=O)c2ccc(NC(=O)c3cccc(C)c3)cc2)C1 (stereo unspecified)	3.3	-2.7	-1.3	-0.2	6.1%	4.4
COc1ccc(N(C)C(=O)c2cn(CC(C)C)c(=O)c3cc(OC)c(OC)cc23)c(OC)c1	-1.3	-4.5	-1.5	x	-0.2%	x
CN(Cc1cnccn1)Cc1nc(Cc2ccccc2Cl)no1	6.9	-1.4	-4.5	-0.6	2.1%	-6.7
CCOC(=O)C1CCN(C(=O)COC(=O)Cc2ccc(Cl)cc2)CC1	x	2.1	3.4	-0.4	-0.4%	-9.0
O=C(Nc1ccccc1OC(F)F)c1cc2c(s1)CCC2	x	2.0	1.7	1.3	-1.8%	5.8
CN(C1CCCC1)C1CCN(C(=O)CNC(=O)/C=C/c2ccc(F)cc2)CC1	-0.3	-2.1	0.2	-0.3	0.7%	-28.9
COCCNc1nc(NCCOC)c2sc(-c3ccccc3)cc2n1	u	-8.0	-8.3	-1.2	-0.3%	x
CSc1nnc(Cn2c(=O)sc3ccccc32)n1-c1ccccc1C	-2.3	-6.4	-4.0	0.3	1.2%	-9.3

The list goes on.
SMILES	CtBP-E1A blk	D2 ag	Six1-Eya2 inh	TRPML1 agonist	PINK1 expr mod	TRPML1 blocker
Cc1ccc(CNC(=O)c2nnn(-c3cccc(C)c3)c2N)cc1	-2.7	-2.0	-5.1	1.3	-0.6%	-3.7
COc1ccccc1NS(=O)(=O)c1ccc(C)c(C(=O)N2CCN(c3ccc(O)cc3)CC2)c1	-3.5	4.3	-5.9	0.8	1.1%	2.8
C=CCn1c(SCC(=O)NCc2ccccc2)nnc1-c1cc(Br)ccc1O	-13.6	-5.3	-12.5	-0.2	u	-5.6
CC12C=CC3(O1)C(C(=O)N(c1ccccc1)C3C(=O)NC1CCCC1)C2C(N)=O (stereo unspecified)	-5.9	-2.3	7.1	0.1	6.2%	-4.7
Nc1c(C(=O)Nc2ccccc2)sc2ncc([N+](=O)[O-])cc12	-22.2	8.2	-0.2	1.4	7.7%	16.0
COc1ccc(C2=NS(=O)(=O)N(C)C(C(=O)NC3CCCCC3)=C2)cc1	-20.1	-7.3	2.4	1.4	0.2%	1.0
CCN(CC)C(=O)CSc1nnc(-c2ccc(F)cc2)n1N	7.0	6.9	-3.1	0.7	-3.2%	-2.4
CC(OC(=O)c1ccc(C(C)(C)C)cc1)C(=O)NC1CCCCC1C (stereo unspecified)	0.0	-2.0	9.8	2.6	u	2.9
COc1ccc(C(=O)N2CCCC(Nc3ccc(F)cc3)C2)c(OC)c1 (stereo unspecified)	-4.8	6.8	0.9	-0.2	-0.8%	23.0

A different layout for 3 compounds above:
SMILES | CtBP-E1A blk | D2 ag | Six1-Eya2 inh | TRPML1 agonist | PINK1 expr mod | TRPML1 blocker
COc1cc(NC(=O)c2nnn(Cc3ccc(SC)cc3)c2N)cc(OC)c1 | -9.7 | 8.3 | -11.4 | 1.4 | 5.9% | 46.0
c1coc(CNc2c3c(nc4ncnn24)CCCC3)c1 | 0.5 | 0.8 | 0.2 | 0.3 | -0.4% | -8.7
COc1ccccc1C(=O)Nc1ccc(NC(=O)c2ccco2)c(C)c1 | -4.1 | -1.4 | -4.1 | -0.9 | -0.7% | -1.8

Compound activity deposited in PubChem by National Center for Advancing Translational Sciences (NCATS).
